Screening data (PubChem)
D2 agonist = human D2 receptor agonism in beta-arrestin assay; activation, % (test concentration not listed); 360,000 compounds, 0.084% hits; DiscoveRx PathHunter D2 beta-arrestin, luminescence, 90 min; 100% = 57 uM dopamine signal; P14416; in the data active = activation above about 40%; inconclusive = about 15% to 40%; inactive = below about 15%; note: compound concentration not given in the record; the text of the record calls up to 30% inactive
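Agonist mode: compounds alone added to overnight-plated D2 PathHunter cells for 90 min at 37 C, with 57 uM final dopamine (EC100) defining full response. Beta-arrestin recruitment detected by chemiluminescent reagent, read after 1 h at ambient temperature.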
Six1-Eya2 blk = inhibitors of human Six1/Eya2 interaction | AlphaScreen GST-Six1/His-Eya2 binding, biochemical; stronger effect = lower value; control for the full effect not named in the record | activity change, % (no concentration beside the values) | 360,000 compounds, 0.56% hits | AID 651725; in the data active = activity change below about -65%; inconclusive = about -30% to -65%; inactive = above about -30%; note: % is set by controls: 0 for no effect and ±100 for the full control effect
Target sequence (O00167 whole entry, looked up): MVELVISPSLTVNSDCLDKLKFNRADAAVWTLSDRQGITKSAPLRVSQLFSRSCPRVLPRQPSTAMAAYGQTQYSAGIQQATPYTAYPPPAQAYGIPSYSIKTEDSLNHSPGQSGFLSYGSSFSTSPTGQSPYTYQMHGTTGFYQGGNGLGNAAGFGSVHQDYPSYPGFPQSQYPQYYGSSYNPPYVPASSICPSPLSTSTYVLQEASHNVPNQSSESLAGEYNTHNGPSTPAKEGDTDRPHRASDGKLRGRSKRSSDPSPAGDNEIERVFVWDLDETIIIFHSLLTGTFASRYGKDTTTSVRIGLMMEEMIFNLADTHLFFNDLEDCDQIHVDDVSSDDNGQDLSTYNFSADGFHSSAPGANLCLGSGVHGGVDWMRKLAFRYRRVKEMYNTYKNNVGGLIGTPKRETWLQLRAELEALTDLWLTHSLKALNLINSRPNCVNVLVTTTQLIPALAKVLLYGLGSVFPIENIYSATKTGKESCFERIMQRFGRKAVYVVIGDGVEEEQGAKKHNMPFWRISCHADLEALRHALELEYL
Target sequence (Q15475 whole entry, looked up): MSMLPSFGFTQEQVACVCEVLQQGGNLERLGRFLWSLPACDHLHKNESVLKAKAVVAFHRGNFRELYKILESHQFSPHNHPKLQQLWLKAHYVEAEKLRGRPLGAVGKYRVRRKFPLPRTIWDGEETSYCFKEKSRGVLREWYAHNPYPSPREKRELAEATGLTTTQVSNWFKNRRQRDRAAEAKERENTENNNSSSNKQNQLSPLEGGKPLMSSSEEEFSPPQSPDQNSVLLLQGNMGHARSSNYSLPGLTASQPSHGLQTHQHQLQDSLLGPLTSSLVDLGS
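Homogeneous AlphaScreen proximity assay pairing GST-Six1 with His-tagged Eya2 (added as 5X mix: 250 nM and 500 nM) in 50 mM Tris pH 8.0, 300 mM NaCl, 1 mM TCEP. Glutathione donor and nickel acceptor beads; 1 h, 37 °C, dark.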
PINK1 expr mod = modulators of PINK1 expression. PINK1 immunofluorescence, high-content cytometry, 24 h. Potency, µM (highest dose often 76.6 µM), for the others: at the highest dose activation (PINK1 increase), actives largely listed as activators. 410,000 compounds, 0.2% hits. AID 624263; active = well fitted activation curve with a large enough effect; inconclusive = small, poorly fitted or top-dose-only effect; inactive = flat fitted curve, though single readings scatter; cell line not stated here;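 note: potency is the fitted concentration of half-maximal effect; % of control where 0% means no effect; nearly all actives have a fitted effect of over 65% in size; a mitochondrial uncoupler was the plate control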
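Fluorescence from anti-PINK1 antibody, together with nuclear and cell stains, was scanned on a laser-scanning cytometer. Before staining, stable-line cells were incubated 24 hours with compounds at 5 concentrations; primary antibody 12 h at 10 degrees C.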
D2 potentiator = potentiates the human D2 dopamine receptor allosterically; DiscoveRx D2 beta-arrestin cells, luminescence, 90 min; 100% = 57 uM dopamine signal; potentiation, % (concentration not given with the values); 360,000 compounds, 0.23% hits; AID 624464; active = potentiation of 50% or more; inconclusive = 30% to 50%; inactive = 30% or less;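 note: tested on top of an EC20 dose of dopamine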
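PathHunter D2 cells, attached overnight at 37 deg C, received compound in DMSO plus dopamine at EC20 (50 nM final) for 90 min at 37 deg C. Beta-arrestin recruitment was read as luminescence after 1 h with detection reagent at ambient temperature.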
CtBP-E1A inh = CtBP/E1A binding inhibition | 340,000 compounds, 0.49% hits | AlphaScreen GST-E1A/His-CtBP binding, 1536-well; stronger effect = lower value; control for the full effect not named in the record | activity change, % (no concentration beside the values); in the data active means activity change below about -65%; inconclusive means about -30% to -65%; inactive means above about -30%; note: % is set by controls: 0 for no effect and ±100 for the full control effect
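In 5 uL wells, 23 nL compound meets equimolar GST-E1A and His-CtBP (5X stock 125 nM each) for 2 h, 37 °C. Beads (5X, 50 ug/mL) then 1 h, 37 °C, dark.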
TRPML1 agonist = activates the human TRPML1 channel; TRPML1-expressing cells, Ca2+ dye fluorescence, FDSS; host cell line not named in the record; reference of the full effect not given here; activation, % (no concentration beside the values); Q9GZU1; 410,000 compounds, 0.12% hits; in the data active = activation above about 50%; inconclusive = about 30% to 50%; inactive = below about 30%; note: 0% is about no effect; the text of the record puts the active cut at 80%
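In this qHTS format, compounds were pin-transferred onto Ca8-dye-loaded TRPML1-DL cells induced with Tet overnight, and intracellular Ca2+ fluorescence was recorded kinetically for 110 s after a 10 s baseline. A subsequent 4uM final 54-4 (EC80) addition followed by a second 110 s read served as the antagonist phase.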
An asterisk follows results filed as active; & = joins results of further samples; [ ] = dose if it differs, or a comment. This is a random part of the collection; any-hit rate near 1.3%.

How did COc1cccc(COC(=O)Cc2ccc(S(=O)(=O)N3CCOCC3)s2)c1OC do in these assays?
D2 agonist: 4.3; Six1-Eya2 blk: -1; PINK1 expr mod: 1.5%; D2 potentiator: -2; CtBP-E1A inh: -13; TRPML1 agonist: 1.6

Results for O=C(Nc1ccc(Br)cn1)c1ccc([N+](=O)[O-])cc1Cl ?
D2 agonist: inconclusive; Six1-Eya2 blk: -19; PINK1 expr mod: 4.6%; D2 potentiator: 7; CtBP-E1A inh: -9; TRPML1 agonist: 0.7

Results for O=c1cc2oc3cc(O)c(O)cc3c(-c3ccccc3[N+](=O)[O-])c-2cc1O ?
D2 agonist: -4.0; Six1-Eya2 blk: -71*; PINK1 expr mod: 1.7%; D2 potentiator: 9; TRPML1 agonist: 4.8

What do the screens show for `COC(=O)C1C(=O)OC(C)(C)C1C(C)C(=O)c1ccccc1` (stereo unspecified)?
D2 agonist: -3.8; Six1-Eya2 blk: 0; PINK1 expr mod: 6.6%[38.3 µM]; D2 potentiator: -6; CtBP-E1A inh: 0; TRPML1 agonist: -0.6

Results for NCCNc1ccc2nnnn2n1 ?
D2 agonist: -5.0; Six1-Eya2 blk: 9; PINK1 expr mod: -0.4%; D2 potentiator: -4; CtBP-E1A inh: 2; TRPML1 agonist: 0.5

Results for Cc1ccc(NC2=C(Cl)C(=O)OC2NC(=O)c2ccccc2)cc1 (stereo unspecified) ?
D2 agonist: -0.6; Six1-Eya2 blk: -2; PINK1 expr mod: -1.0%; D2 potentiator: -6; CtBP-E1A inh: 3; TRPML1 agonist: 1.2

How did NC(=O)SCC(=O)Nc1ccccc1C(=O)O do in these assays?
D2 agonist: -5.5; Six1-Eya2 blk: -3; PINK1 expr mod: 3.5%; D2 potentiator: -6; TRPML1 agonist: -0.4

What do the screens show for `Cc1ccc(C(OC(=O)c2ccco2)C(=O)NCc2cccs2)cc1` (stereo unspecified)?
D2 agonist: -3.3; Six1-Eya2 blk: -5; PINK1 expr mod: 0.2%; D2 potentiator: -2; CtBP-E1A inh: -4; TRPML1 agonist: 0.4

What do the screens show for `COc1ccc(CCNC(=O)CSc2ccsc2[N+](=O)[O-])cc1OC`?
D2 agonist: -3.1; Six1-Eya2 blk: -4; PINK1 expr mod: -0.3%; D2 potentiator: -3; CtBP-E1A inh: -5; TRPML1 agonist: 0.9

Results for O=C(c1ccc(NS(=O)(=O)c2ccc3c(c2)OCCO3)cc1)N1CCCCC1 ?
D2 agonist: -4.0; Six1-Eya2 blk: 5; PINK1 expr mod: -1.1%; D2 potentiator: 2; CtBP-E1A inh: -5; TRPML1 agonist: 0.4

Quoted at random: 3 entries already listed, in no set order.
What do the screens show for `COc1ccc(CCNC(=O)CSc2ccsc2[N+](=O)[O-])cc1OC`?
D2 agonist: -3.1; Six1-Eya2 blk: -4; PINK1 expr mod: -0.3%; D2 potentiator: -3; CtBP-E1A inh: -5; TRPML1 agonist: 0.9

What do the screens show for `Cc1ccc(C(OC(=O)c2ccco2)C(=O)NCc2cccs2)cc1` (stereo unspecified)?
D2 agonist: -3.3; Six1-Eya2 blk: -5; PINK1 expr mod: 0.2%; D2 potentiator: -2; CtBP-E1A inh: -4; TRPML1 agonist: 0.4

Results for O=c1cc2oc3cc(O)c(O)cc3c(-c3ccccc3[N+](=O)[O-])c-2cc1O ?
D2 agonist: -4.0; Six1-Eya2 blk: -71*; PINK1 expr mod: 1.7%; D2 potentiator: 9; TRPML1 agonist: 4.8

Continuation:
How did Cc1ccc2nc(SCC(=O)Nc3ccc(C)c([N+](=O)[O-])c3)[nH]c2c1 do in these assays?
D2 agonist: -4.5; Six1-Eya2 blk: 0; PINK1 expr mod: 3.1%; D2 potentiator: -29; CtBP-E1A inh: -7; TRPML1 agonist: 0.0

Results for N#C/C(=N\O)c1nc(-c2ccccc2)cs1 ?
D2 agonist: -5.8&-2.6; Six1-Eya2 blk: -4&0; PINK1 expr mod: 1.1%; D2 potentiator: -9&-10; CtBP-E1A inh: 0&7; TRPML1 agonist: 0.3&0.0

What do the screens show for `COc1ccc(Cl)cc1N(CC(=O)N1CCCCC1)S(C)(=O)=O`?
D2 agonist: 3.5; Six1-Eya2 blk: -2; PINK1 expr mod: -2.5%; D2 potentiator: -2; CtBP-E1A inh: 4; TRPML1 agonist: 2.2

How did CCCCC(=O)Nc1ccc(NC(=O)c2cc(OC)c(OC)c(OC)c2)cn1 do in these assays?
D2 agonist: 1.5; Six1-Eya2 blk: -6; PINK1 expr mod: 5.2%; D2 potentiator: 5; CtBP-E1A inh: 3; TRPML1 agonist: -0.4

What do the screens show for `CCC(C)NC(=O)CC(NS(=O)(=O)c1ccc(NC(C)=O)cc1)C(C)C` (stereo unspecified)?
D2 agonist: -3.7; Six1-Eya2 blk: 0; PINK1 expr mod: -1.6%; D2 potentiator: -8; CtBP-E1A inh: 2; TRPML1 agonist: -1.1

How did Cc1ccc(S(=O)(=O)N2c3ccc(S(N)(=O)=O)cc3CC2C)cc1 (stereo unspecified) do in these assays?
D2 agonist: -5.0; Six1-Eya2 blk: 8; PINK1 expr mod: 0.4%; D2 potentiator: -5; CtBP-E1A inh: 4; TRPML1 agonist: -0.3

How did CC(C)CN(C(=O)COC(=O)c1nc(Cl)ccc1Cl)c1c(N)n(Cc2ccccc2)c(=O)[nH]c1=O do in these assays?
D2 agonist: -4.6; Six1-Eya2 blk: -1; PINK1 expr mod: -0.1%; D2 potentiator: -15; CtBP-E1A inh: 5; TRPML1 agonist: 0.4

What do the screens show for `COc1ccc([C@H]2CN(c3ccc(OC)cc3)C(=O)[C@@H]2CC(=O)Nc2ccccc2)cc1`?
D2 agonist: -0.9; Six1-Eya2 blk: -26; PINK1 expr mod: -0.4%; CtBP-E1A inh: -16

What do the screens show for `Cc1cc(NC(=O)CN2C(=O)/C(=C/c3cccc(Br)c3)SC2=S)no1`?
D2 agonist: 0.3; Six1-Eya2 blk: -5; PINK1 expr mod: 19%; D2 potentiator: 4; CtBP-E1A inh: 13; TRPML1 agonist: 0.0

How did O=C(Cc1cccc2ccccc12)NNC(=O)Nc1cccc(Cl)c1 do in these assays?
D2 agonist: -2.4; Six1-Eya2 blk: 0; PINK1 expr mod: -0.6%; D2 potentiator: -1; CtBP-E1A inh: -1; TRPML1 agonist: 2.1

How did CCCCC(c1nnnn1CC1CCCO1)N1CCN(Cc2ccccc2)CC1 (stereo unspecified) do in these assays?
D2 agonist: -3.5; Six1-Eya2 blk: 1; PINK1 expr mod: -1.1%; D2 potentiator: -42; CtBP-E1A inh: 3; TRPML1 agonist: -0.1

How did CC(C)CN(C(=O)COC(=O)CCc1c[nH]c2ccccc12)C1CCS(=O)(=O)C1 (stereo unspecified) do in these assays?
D2 agonist: -1.0; Six1-Eya2 blk: 0; PINK1 expr mod: -1.0%; D2 potentiator: 7; CtBP-E1A inh: 2; TRPML1 agonist: 0.1

Results for CCc1nc2ccc(C(=O)NCCCn3ccnc3)cn2c1N(C)Cc1ccc(OC)cc1 ?
D2 agonist: -2.3; Six1-Eya2 blk: -10; PINK1 expr mod: 0.1%; D2 potentiator: -16; CtBP-E1A inh: -11; TRPML1 agonist: -0.7

What do the screens show for `O=C(CC1CCCCC1)N1CCCC(c2nc(-c3ccc(S(=O)(=O)N4CCCC4)cc3)no2)C1` (stereo unspecified)?
D2 agonist: -0.2; Six1-Eya2 blk: -3; D2 potentiator: -4; CtBP-E1A inh: 14; TRPML1 agonist: 0.1

What do the screens show for `O=C(CSc1ncccn1)Nc1ccc2c(c1)OCO2`?
D2 agonist: -2.6; Six1-Eya2 blk: -2; PINK1 expr mod: -3.1%; D2 potentiator: 1; CtBP-E1A inh: 2; TRPML1 agonist: -0.5

Results for S=c1[nH]nc(-c2cccnc2)n1-c1ccc2c(c1)OCCO2 ?
D2 agonist: 4.5; Six1-Eya2 blk: -1; PINK1 expr mod: 2.2%; D2 potentiator: -10; CtBP-E1A inh: -8; TRPML1 agonist: 0.4

What do the screens show for `N#CCCN(C(=O)CSc1nnc(-c2ccncc2)n1C1CC1)c1ccccc1`?
D2 agonist: -1.9; Six1-Eya2 blk: 1; PINK1 expr mod: 3.4%; D2 potentiator: -2; CtBP-E1A inh: 2; TRPML1 agonist: -0.3

Results for CCOC(=O)N1CCN(C(=O)CCn2nc(-c3ccccc3)ccc2=O)CC1 ?
D2 agonist: -1.1; Six1-Eya2 blk: -3; PINK1 expr mod: 8.2%; D2 potentiator: 9; CtBP-E1A inh: 8; TRPML1 agonist: 3.5

What do the screens show for `CP(C)(=O)CCP(=O)(c1ccccc1)c1ccccc1`?
D2 agonist: 0.4; Six1-Eya2 blk: -3; PINK1 expr mod: -2.5%; D2 potentiator: 12; CtBP-E1A inh: 14; TRPML1 agonist: 0.0

What do the screens show for `Cc1ccc(S(=O)(=O)/N=C(\CN2CCCCC2)N2CCOCC2)cc1`?
D2 agonist: -1.7; Six1-Eya2 blk: 2; PINK1 expr mod: 11%[38.3 µM]; D2 potentiator: 1; CtBP-E1A inh: 4; TRPML1 agonist: -0.1

What do the screens show for `COc1cc2nc(CN3C(=O)c4ccccc4C3=O)oc(=O)c2cc1OC`?
D2 agonist: -2.5; Six1-Eya2 blk: 9; PINK1 expr mod: -3.0%; D2 potentiator: 3; CtBP-E1A inh: 6; TRPML1 agonist: 0.0

What do the screens show for `CCOC(=O)c1c(NC(=O)C2CCCO2)sc(C)c1C` (stereo unspecified)?
D2 agonist: 1.0; Six1-Eya2 blk: 3; PINK1 expr mod: -0.2%; D2 potentiator: -2; CtBP-E1A inh: -3; TRPML1 agonist: 1.7

How did Cc1ccc(C(=O)CSc2nccn2-c2ccccc2)cc1 do in these assays?
D2 agonist: -3.3; Six1-Eya2 blk: -15; PINK1 expr mod: 1.1%; D2 potentiator: -3; CtBP-E1A inh: -2; TRPML1 agonist: 0.5

What do the screens show for `CCN(CCNC(=O)c1ccc(C#N)cc1)c1cccc(C)c1`?
D2 agonist: -1.8; Six1-Eya2 blk: 2; PINK1 expr mod: -0.2%; D2 potentiator: -11; CtBP-E1A inh: 0; TRPML1 agonist: -0.5

Results for CCc1ccc(-n2nnnc2SCC(=O)Nc2ccc(NC(C)=O)cc2)cc1 ?
D2 agonist: -1.6; Six1-Eya2 blk: -1; PINK1 expr mod: 6.0%; D2 potentiator: -13; TRPML1 agonist: -0.7

What do the screens show for `CCOc1c(Br)cc(CNc2ccc(N3CCN(C(C)=O)CC3)cc2)cc1OC`?
D2 agonist: 1.9; Six1-Eya2 blk: -27; PINK1 expr mod: 0.2%; D2 potentiator: 16; CtBP-E1A inh: -28; TRPML1 agonist: 0.3

What do the screens show for `Cc1c(Cl)cccc1Nc1ccccc1C(=O)O`?
D2 agonist: 4.6; Six1-Eya2 blk: -3; PINK1 expr mod: -0.3%; D2 potentiator: 8; CtBP-E1A inh: 1; TRPML1 agonist: -0.4

What do the screens show for `COc1cc(-c2n[nH]c(=S)n2Cc2ccccc2)cc(OC)c1OC`?
D2 agonist: 2.6; Six1-Eya2 blk: 2; PINK1 expr mod: -0.8%; D2 potentiator: -11; CtBP-E1A inh: 5; TRPML1 agonist: 0.0
